Insulin prom inh: TRM-6 insulin promoter activity inhibition. inhibition, % at 2 µM. AID 1273. 0.9% of 130,000 active. TRM-6 cells (human fetal islet line), insulin promoter-eGFP reporter, imaging; reporter expression induced with tamoxifen;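 active means inhibition above the mean plus 3 SD, with well images judged a real hit on visual review, cut at about 60% in these data, passing the limit was not always enough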
HSV augment: HSV replication enhancement | HSV replication augmentation in cells, fold increase | maximum fold increase | 0.005% of 220,000 active | AID 1956;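 active means peak rise of 1.5-fold or more in the series; tested in PC3 cells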;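 further: first round at 10 µM; read as green reporter fluorescence; hits show the peak of a series up to 25 µM; 1 = signal of infected wells without compound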
GALR2 agonist: activates the human galanin receptor 2 | O43603 | GALR2-expressing cells, agonist activation read-out | activation, %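 (tested at 5 µM)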 | 0.48% of 140,000 active | AID 803;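 active means above mean plus 3 SD of all compounds, about 5% in these data, not always enough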;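 further: 0% = vehicle buffer wells and 100% = reference agonist at full effect; tested in CHO reporter cells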
Target sequence (O43603 whole entry, looked up): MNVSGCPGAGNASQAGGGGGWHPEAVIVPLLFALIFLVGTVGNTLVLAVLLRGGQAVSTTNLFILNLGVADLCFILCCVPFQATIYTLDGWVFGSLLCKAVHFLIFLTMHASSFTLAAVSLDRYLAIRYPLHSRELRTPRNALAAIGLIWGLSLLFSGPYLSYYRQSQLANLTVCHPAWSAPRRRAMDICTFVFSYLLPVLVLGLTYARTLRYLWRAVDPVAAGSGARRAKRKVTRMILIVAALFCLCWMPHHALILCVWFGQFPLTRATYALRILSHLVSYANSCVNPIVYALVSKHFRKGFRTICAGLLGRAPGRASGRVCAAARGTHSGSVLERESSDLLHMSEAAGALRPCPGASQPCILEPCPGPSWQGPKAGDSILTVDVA
PKD1 inh: PKD1 (human) kinase inhibition. Q15139. PKD1 kinase fluorescence polarization assay. inhibition, %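 (about 10 µM by stock and volumes)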. 0.056% of 200,000 active. AID 797;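 active means inhibition of 50% or more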;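 further: controls were vehicle for no effect and a reference inhibitor for full effect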
RGS16-Gao: modulates binding between human RGS16 and Galphao; O15492+P09471; bead-based flow cytometry RGS16-Galphao binding, fluorescence; actives lie on both sides; binding response (% of control), % at 10 µM; 0.38% of 220,000 active; AID 1441;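 active means below 25% or above 175%, edge rows of some plates excepted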;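 further: Galphao activated by GDP with aluminum fluoride before binding; 100% = wells without compound and 0% = beads without RGS; some results beyond the cut were filed as inactive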
Target sequence (O15492 whole entry, looked up): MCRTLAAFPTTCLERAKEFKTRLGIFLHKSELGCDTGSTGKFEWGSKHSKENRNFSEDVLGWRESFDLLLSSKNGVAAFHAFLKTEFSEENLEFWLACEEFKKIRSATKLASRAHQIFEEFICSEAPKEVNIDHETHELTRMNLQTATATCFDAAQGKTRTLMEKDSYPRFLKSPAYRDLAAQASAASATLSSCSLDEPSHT
Target sequence (P09471 whole entry, looked up): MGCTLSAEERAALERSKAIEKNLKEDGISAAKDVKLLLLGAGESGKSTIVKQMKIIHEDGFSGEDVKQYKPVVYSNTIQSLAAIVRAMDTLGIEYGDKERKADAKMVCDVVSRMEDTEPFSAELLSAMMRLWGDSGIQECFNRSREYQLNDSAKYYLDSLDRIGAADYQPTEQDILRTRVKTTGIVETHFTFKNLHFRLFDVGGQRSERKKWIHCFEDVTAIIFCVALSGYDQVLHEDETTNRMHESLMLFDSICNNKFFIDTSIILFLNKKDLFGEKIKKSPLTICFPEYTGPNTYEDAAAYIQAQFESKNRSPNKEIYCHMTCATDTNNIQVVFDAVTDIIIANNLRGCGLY
Insulin prom inh cell count: recorded beside Insulin prom inh, whose call it bears; normalized cell count, %; measured here: cell count, toxicity; reference of the scale not given here;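 cells exposed to compound for 48 h; stained nuclei by imaging scaled within each plate; lower means fewer cells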
HSV augment primary fold: further read-out of HSV augment, marked with its call; fold increase; compound at 10 µM; measured here: primary screen fold increase 10 uM; tested in PC3 cells;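 GFP signal in the first replicate; 1 = infected wells without compound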
* = called active by the depositor.

For O=[N+]([O-])CC(=Nc1ccc(Cl)cc1)N/N=C\c1oc(O)c2ccccc12 the results were Insulin prom inh 33, GALR2 agonist -2.0, PKD1 inh 0, RGS16-Gao 100 and Insulin prom inh cell count 94.
CCOC(=O)c1sc(NC(=O)CN(CC)CC)c(C(=O)OCC)c1C was read as Insulin prom inh 42, HSV augment inactive, GALR2 agonist -1.1, PKD1 inh -1, RGS16-Gao 153, Insulin prom inh cell count 168 and HSV augment primary fold 0.96.
Screening CCCN(CCC)S(=O)(=O)c1ccc(Cl)c([N+](=O)[O-])c1 returned HSV augment inactive, PKD1 inh -2, RGS16-Gao 103 and HSV augment primary fold 0.66.
For Cc1ccc(S(=O)(=O)/C(C#N)=C/c2c(N3CCN(C)CC3)nc3ccccn3c2=O)cc1 the results were HSV augment inactive, GALR2 agonist 0.5, PKD1 inh -2, RGS16-Gao 88 and HSV augment primary fold 1.1.
Screening O/N=C1/CCCCc2sccc21 returned HSV augment inactive, GALR2 agonist 0.0, PKD1 inh -5, RGS16-Gao 108 and HSV augment primary fold 0.91.
For Cc1cccn2c(=O)c3cc(C#N)c(=N)n(CCN4CCOCC4)c3nc12 the results were Insulin prom inh 11, GALR2 agonist -1.6, PKD1 inh 6, RGS16-Gao 169 and Insulin prom inh cell count 69.
Screening CCOC(=O)C1=NN(C(C)=O)C2C(=O)N(CC)C(=O)C12 (stereo unspecified) returned HSV augment inactive, RGS16-Gao 96 and HSV augment primary fold 0.94.
COc1ccc(N2CCN(c3nc(NCCO)nc(N4CCOCC4)n3)CC2)cc1 was read as Insulin prom inh 17, HSV augment inactive, GALR2 agonist -1.4, PKD1 inh -4, RGS16-Gao 104, Insulin prom inh cell count 61 and HSV augment primary fold 1.
`O=C(NCCN1CCN(Cc2ccccc2Cl)CC1)Nc1ccccc1` gave Insulin prom inh -3, HSV augment inactive, GALR2 agonist -1.9, PKD1 inh -7, RGS16-Gao 104, Insulin prom inh cell count 123 and HSV augment primary fold 0.84.
`Cc1nc2ccccc2c(=O)n1CC(=O)N1CCOCC1` gave Insulin prom inh 7, HSV augment inactive, GALR2 agonist 1.2, PKD1 inh -1, RGS16-Gao 99, Insulin prom inh cell count 88 and HSV augment primary fold 0.95.
`COc1ccc(-n2nnc3c(SCC(=O)NCc4ccco4)ncnc32)cc1` gave Insulin prom inh -9, HSV augment inactive, GALR2 agonist -2.5, PKD1 inh 2, RGS16-Gao 109, Insulin prom inh cell count 107 and HSV augment primary fold 0.94.
`CCOc1ccc(Nc2nc(Cc3nnc(SCC(=O)N(CC)CC)n3C)cs2)cc1` gave Insulin prom inh -275, HSV augment inactive, GALR2 agonist -3.9, PKD1 inh -9, RGS16-Gao 43, Insulin prom inh cell count 89 and HSV augment primary fold 0.78.
For O=C(N/N=C/c1sc(=O)[nH]c1-[n+]1ccccc1)c1ccccc1[O-] the results were HSV augment inactive, RGS16-Gao 111 and HSV augment primary fold 1.1.
Screening C=CCc1cc(/C=N\NC(=O)CSc2nnc(CCCc3ccc(OC)c(C)c3)o2)cc(OC)c1O returned Insulin prom inh 6, HSV augment inactive, GALR2 agonist -1.7, PKD1 inh 2, RGS16-Gao 94, Insulin prom inh cell count 131 and HSV augment primary fold 0.95.
For Cn1cc(Cl)c(-c2n[nH]c(=S)n2-c2ccc(F)cc2)n1 the results were Insulin prom inh -29, HSV augment inactive, GALR2 agonist -0.7, PKD1 inh -14, RGS16-Gao 100, Insulin prom inh cell count 114 and HSV augment primary fold 0.99.
FC(F)(F)c1cnc(Sc2nnc(-c3cccs3)n2CC2CCCO2)c(Cl)c1 (stereo unspecified) was read as Insulin prom inh 8, HSV augment inactive, GALR2 agonist -2.1, PKD1 inh -4, RGS16-Gao 96, Insulin prom inh cell count 51 and HSV augment primary fold 1.1.
For O=C(CCl)N(c1ccc(Cl)cc1)c1c[nH]c2ccccc12 the results were Insulin prom inh -257, HSV augment inactive, GALR2 agonist -2.7, PKD1 inh 3, RGS16-Gao 100, Insulin prom inh cell count 5 and HSV augment primary fold 0.52.
`COc1cc(OC)cc(C(=O)NCC(=O)OCC(=O)c2ccc3c(c2)-c2ccccc2C3)c1` gave HSV augment inactive, GALR2 agonist -1.9, PKD1 inh 0, RGS16-Gao 99 and HSV augment primary fold 1.
For CCOc1ccc(N(CC(=O)NCC2CCCO2)S(=O)(=O)c2ccc(OC)c(OC)c2)cc1 (stereo unspecified) the results were Insulin prom inh -107, HSV augment inactive, GALR2 agonist -2.3, PKD1 inh -1, RGS16-Gao 103, Insulin prom inh cell count 66 and HSV augment primary fold 1.1.
`N#CC1=C(N)NC(=S)C(C(N)=O)C1c1ccc(Cl)cc1Cl` (stereo unspecified) gave HSV augment inactive, PKD1 inh 7, RGS16-Gao 96 and HSV augment primary fold 0.85.
Screening CCC(=O)N1CCN(c2cc(C)ccc2C)CC1 returned Insulin prom inh -7, HSV augment inactive, GALR2 agonist -0.8, PKD1 inh 0, RGS16-Gao 97, Insulin prom inh cell count 76 and HSV augment primary fold 1.
For COc1cccc(N(C(=O)Cn2nnc(-c3ccc(C)o3)n2)C(C(=O)NC(C)(C)C)c2cccs2)c1 (stereo unspecified) the results were Insulin prom inh -28, HSV augment inactive, GALR2 agonist -0.7, PKD1 inh 3, RGS16-Gao 124, Insulin prom inh cell count 109 and HSV augment primary fold 0.94.
`CC(=O)NC(N(C#N)c1nc(Cl)nc(N(C)C)n1)C(Cl)(Cl)Cl` (stereo unspecified) gave HSV augment inactive, RGS16-Gao 97 and HSV augment primary fold 0.69.
Screening O=C(NCCCn1ccnc1)c1sc2cccc(F)c2c1Cl returned Insulin prom inh 57, HSV augment inactive, GALR2 agonist -3.8, PKD1 inh -5, RGS16-Gao 100, Insulin prom inh cell count 106 and HSV augment primary fold 0.87.

Pulled one by one from the entries so far, 2 records:
`O=C(NCCN1CCN(Cc2ccccc2Cl)CC1)Nc1ccccc1` gave Insulin prom inh -3, HSV augment inactive, GALR2 agonist -1.9, PKD1 inh -7, RGS16-Gao 104, Insulin prom inh cell count 123 and HSV augment primary fold 0.84.
For O=C(N/N=C/c1sc(=O)[nH]c1-[n+]1ccccc1)c1ccccc1[O-] the results were HSV augment inactive, RGS16-Gao 111 and HSV augment primary fold 1.1.

Next records.
For Cc1c(NC(=O)c2ccc(Cl)s2)c(=O)n(-c2ccccc2)n1C the results were Insulin prom inh 42, HSV augment inactive, GALR2 agonist -1.9, PKD1 inh 4, RGS16-Gao 110, Insulin prom inh cell count 57 and HSV augment primary fold 1.
For O=C1CCCN1Cc1ncnn1-c1ccccc1 the results were Insulin prom inh -24, HSV augment inactive, GALR2 agonist -1.0, PKD1 inh -13, RGS16-Gao 101, Insulin prom inh cell count 80 and HSV augment primary fold 0.97.
For Cc1nc2cc(C(F)(F)F)ccc2n1C the results were Insulin prom inh 75*, HSV augment inactive, PKD1 inh 3, RGS16-Gao 108, Insulin prom inh cell count 153* and HSV augment primary fold 0.9.
Screening Cc1c(Cl)cccc1S(=O)(=O)Nc1ccnn1C returned HSV augment inactive, RGS16-Gao 103 and HSV augment primary fold 0.92.
`O=c1c2nccnc2[nH]c(=S)n1Cc1ccccc1Cl` gave HSV augment inactive, PKD1 inh 2, RGS16-Gao 99 and HSV augment primary fold 0.94.
For Cn1c(-c2ccccc2)cnc1SCc1nc2ccccc2c(=O)[nH]1 the results were Insulin prom inh 25, HSV augment inactive, GALR2 agonist -1.1, PKD1 inh -4, RGS16-Gao 101, Insulin prom inh cell count 106 and HSV augment primary fold 0.96.
For CCOP(=O)(OCC)C(NC(=O)Nc1ccc(C)cc1)C(N)=O (stereo unspecified) the results were HSV augment inactive, RGS16-Gao 104 and HSV augment primary fold 1.2.
For COc1ccc(NC(=O)C2CC(=O)N(c3cc(C)ccc3C)C2)cc1 (stereo unspecified) the results were Insulin prom inh -19, HSV augment inactive, GALR2 agonist -2.2, PKD1 inh -7, RGS16-Gao 100, Insulin prom inh cell count 156 and HSV augment primary fold 0.94.
For CCOC(=O)c1c(NC(=O)CSc2nnc3c(Cl)cc(Cl)cn23)sc2c1CCC2 the results were HSV augment inactive, GALR2 agonist 0.9, PKD1 inh -6, RGS16-Gao 96 and HSV augment primary fold 1.1.
For O=C(Nc1ccccc1F)Oc1cccc(OC(=O)Nc2ccccc2F)c1 the results were HSV augment inactive, RGS16-Gao 99 and HSV augment primary fold 0.97.
Screening CCCCN(C)CCNC(=O)C(NC(=O)C1CCC(C)CC1)C(C)C (stereo unspecified) returned Insulin prom inh -93, HSV augment inactive, PKD1 inh 4, RGS16-Gao 103, Insulin prom inh cell count 96 and HSV augment primary fold 1.
`OCCNCC(O)Cn1c2ccccc2c2ccccc21` (stereo unspecified) gave Insulin prom inh -120, HSV augment inactive, PKD1 inh -2, RGS16-Gao 145, Insulin prom inh cell count 62 and HSV augment primary fold 0.91.

Copied from the listing for reference:
Screening CCOC(=O)C1=NN(C(C)=O)C2C(=O)N(CC)C(=O)C12 (stereo unspecified) returned HSV augment inactive, RGS16-Gao 96 and HSV augment primary fold 0.94.
COc1ccc(N2CCN(c3nc(NCCO)nc(N4CCOCC4)n3)CC2)cc1 was read as Insulin prom inh 17, HSV augment inactive, GALR2 agonist -1.4, PKD1 inh -4, RGS16-Gao 104, Insulin prom inh cell count 61 and HSV augment primary fold 1.
`O=C(NCCN1CCN(Cc2ccccc2Cl)CC1)Nc1ccccc1` gave Insulin prom inh -3, HSV augment inactive, GALR2 agonist -1.9, PKD1 inh -7, RGS16-Gao 104, Insulin prom inh cell count 123 and HSV augment primary fold 0.84.
`Cc1nc2ccccc2c(=O)n1CC(=O)N1CCOCC1` gave Insulin prom inh 7, HSV augment inactive, GALR2 agonist 1.2, PKD1 inh -1, RGS16-Gao 99, Insulin prom inh cell count 88 and HSV augment primary fold 0.95.

Continuation:
For CC1=C(C)CC(C(=O)NNC(=O)c2csc3c2CCC(C(C)(C)C)C3)C(C(=O)O)C1 (stereo unspecified) the results were Insulin prom inh -36, HSV augment inactive, GALR2 agonist -0.6, PKD1 inh -6, RGS16-Gao 110, Insulin prom inh cell count 167 and HSV augment primary fold 0.95.
Screening Cc1ccc(S(=O)(=O)N(CCCO)CC(O)CON=C2c3ccccc3-c3ccccc32)cc1 (stereo unspecified) returned HSV augment inactive, GALR2 agonist -0.8, PKD1 inh 2, RGS16-Gao 101 and HSV augment primary fold 0.84.
Cc1ccc(N=C2NC(=O)/C(=C\c3ccco3)S2)cc1 was read as Insulin prom inh -36, HSV augment inactive, GALR2 agonist -0.8, PKD1 inh 3, RGS16-Gao 101, Insulin prom inh cell count 63 and HSV augment primary fold 1.2.
CC(=O)CCn1cnc([N+](=O)[O-])n1 was read as Insulin prom inh 7, HSV augment inactive, PKD1 inh -3, RGS16-Gao 100, Insulin prom inh cell count 112 and HSV augment primary fold 1.1.
`O=C(c1cc(Cl)ccc1Cl)N1CCOCC1` gave Insulin prom inh 24, HSV augment inactive, GALR2 agonist -1.8, PKD1 inh -6, RGS16-Gao 102, Insulin prom inh cell count 108 and HSV augment primary fold 0.85.
CCCCCCCCOC(=O)C(NC(=O)CCC(=O)Nc1ccc(S(N)(=O)=O)cc1)C(O)c1ccccc1 (stereo unspecified) was read as Insulin prom inh 0, HSV augment inactive, GALR2 agonist -1.4, PKD1 inh -3, RGS16-Gao 105, Insulin prom inh cell count 119 and HSV augment primary fold 0.98.
CCOC(=O)N1CCN(C(=S)Nc2ccc(C)cc2C)CC1 was read as HSV augment inactive, PKD1 inh -5, RGS16-Gao 100 and HSV augment primary fold 0.95.
Screening Cc1c(CCCN)c2ccccc2n1Cc1ccccc1 returned Insulin prom inh -25, HSV augment inactive, PKD1 inh -4, RGS16-Gao 100, Insulin prom inh cell count 116 and HSV augment primary fold 0.91.
Screening C/C(=N\NC(=O)COc1ccccc1[N+](=O)[O-])c1cccs1 returned Insulin prom inh 46, HSV augment inactive, PKD1 inh -1, RGS16-Gao 101, Insulin prom inh cell count 107 and HSV augment primary fold 1.1.
O=C(N/N=C/c1cc(Cl)cc([N+](=O)[O-])c1O)c1ccccc1NS(=O)(=O)c1cccs1 was read as HSV augment inactive, RGS16-Gao 107 and HSV augment primary fold 1.4.
`O=C(CSc1nc2ncc(Br)cc2[nH]1)c1cccc([N+](=O)[O-])c1` gave Insulin prom inh -18, HSV augment inactive, GALR2 agonist -0.8, PKD1 inh 6, RGS16-Gao 101, Insulin prom inh cell count 87 and HSV augment primary fold 0.92.
Screening CCC(=NCCc1c(C)[nH]c2ccccc12)C1=C(O)CC(c2ccccc2)CC1=O (stereo unspecified) returned Insulin prom inh -16, HSV augment inactive, GALR2 agonist -0.7, PKD1 inh -9, RGS16-Gao 17, Insulin prom inh cell count 63 and HSV augment primary fold 0.66.
For Cc1n[nH]c(=S)n1-c1ccc(Cl)cc1 the results were HSV augment inactive, PKD1 inh 3, RGS16-Gao 107 and HSV augment primary fold 0.92.
Cc1ccc([N+](=O)[O-])c(OCCN2C(=O)NC(C)(C)C2=O)c1 was read as HSV augment inactive, PKD1 inh 9, RGS16-Gao 100 and HSV augment primary fold 0.95.

Assay outcomes (PubChem BioAssay)
